D2 ag: activates the human D2 dopamine receptor; activation, % (concentration not given with the values); P14416; hit rate 0.084% among 360,000; DiscoveRx PathHunter D2 beta-arrestin, luminescence, 90 min; 100% = 57 uM dopamine signal; in the data active = activation above about 40%; inconclusive = about 15% to 40%; inactive = below about 15%; further: compound concentration not given in the record; the text of the record calls up to 30% inactive
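DiscoveRx PathHunter D2 beta-arrestin cells (2,100/well) attached overnight, then compound-stimulated 90 min at 37 C in HBSS/10 mM HEPES/0.1% Tween-20 buffer; beta-galactosidase complementation read by luminescence after 1 h at ambient temperature. Dopamine 57 uM final (EC100) as control.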
D2 PAM: human D2 receptor positive allosteric modulation | DiscoveRx D2 beta-arrestin cells, luminescence, 90 min; 100% = 57 uM dopamine signal | potentiation, % (concentration not given with the values) | hit rate 0.23% among 360,000 | AID 624464; active = potentiation of 50% or more; inconclusive = 30% to 50%; inactive = 30% or less;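 further: compound concentration not given in the record; tested on top of an EC20 dose of dopamine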
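D2 cells co-treated with compound plus 50 nM dopamine (EC20) for 90 min at 37 deg C to detect potentiation. Beta-arrestin recruitment was read as enzyme-fragment luminescence after 1 h at ambient temperature. Full response was set by 57 uM dopamine.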
Six1-Eya2 blk: inhibitors of human Six1/Eya2 interaction | activity change, % (concentration not given with the values) | hit rate 0.56% among 360,000 | Q15475+O00167 | AlphaScreen GST-Six1/His-Eya2 binding, biochemical; active compounds read low; control for the full effect not named in the record | AID 651725; in the data active = activity change below about -65%; inconclusive = about -30% to -65%; inactive = above about -30%; further: on the % scale 0 is the no-effect control and ±100 the full control effect
Target sequence (O00167 whole entry, looked up): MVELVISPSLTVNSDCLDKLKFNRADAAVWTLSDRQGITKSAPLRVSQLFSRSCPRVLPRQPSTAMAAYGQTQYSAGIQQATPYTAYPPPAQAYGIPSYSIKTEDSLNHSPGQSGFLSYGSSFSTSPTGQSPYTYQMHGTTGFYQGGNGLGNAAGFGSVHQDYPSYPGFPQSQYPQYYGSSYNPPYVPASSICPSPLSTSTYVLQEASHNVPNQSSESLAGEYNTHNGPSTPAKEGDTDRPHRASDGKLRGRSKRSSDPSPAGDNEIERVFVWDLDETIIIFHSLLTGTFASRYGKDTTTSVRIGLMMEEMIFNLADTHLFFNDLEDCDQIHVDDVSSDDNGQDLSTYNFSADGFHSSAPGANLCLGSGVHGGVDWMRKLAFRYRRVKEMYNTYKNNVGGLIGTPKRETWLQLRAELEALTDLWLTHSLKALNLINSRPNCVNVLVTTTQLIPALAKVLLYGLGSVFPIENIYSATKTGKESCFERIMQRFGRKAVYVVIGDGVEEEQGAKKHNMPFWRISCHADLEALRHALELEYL
Target sequence (Q15475 whole entry, looked up): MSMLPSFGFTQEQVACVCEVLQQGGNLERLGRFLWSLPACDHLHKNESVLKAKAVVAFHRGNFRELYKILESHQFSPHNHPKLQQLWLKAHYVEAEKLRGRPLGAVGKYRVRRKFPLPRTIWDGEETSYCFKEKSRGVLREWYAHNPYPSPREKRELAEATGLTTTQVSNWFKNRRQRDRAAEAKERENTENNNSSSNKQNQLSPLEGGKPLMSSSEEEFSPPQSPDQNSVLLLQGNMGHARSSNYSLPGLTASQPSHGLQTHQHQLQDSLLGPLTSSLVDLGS
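GST-Six1 + His-Eya2 (5X stock: 250/500 nM); Tris pH 8.0, 300 mM NaCl, 0.05% BSA, 0.02% Tween 20; GSH donor/Ni acceptor beads; 1 h 37 °C dark; AlphaScreen readout.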
PINK1 expr mod: modulators of PINK1 expression; PINK1 immunofluorescence, high-content cytometry, 24 h; hit rate 0.2% among 410,000; Potency, µM (highest dose often 76.6 µM), inactives show at the highest dose activation (PINK1 increase), most hits filed as activators; active = well fitted activation curve with a large enough effect; inconclusive = small, poorly fitted or top-dose-only effect; inactive = flat fitted curve, though single readings scatter; cell line not stated here;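 further: potency means the concentration at half of the fitted maximal effect; % of control where 0% means no effect; nearly all actives have a fitted effect of over 65% in size; a mitochondrial uncoupler was the plate control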
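Stable cell line treated 24 h with compounds at 5 concentrations (CCCP controls), then fixed and immunostained for PINK1 plus nuclear and cell stains; PINK1 immunofluorescence quantified by laser-scanning microplate cytometry.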
TRPML1 ag: agonists of human TRPML1 channel. Q9GZU1. TRPML1-expressing cells, Ca2+ dye fluorescence, FDSS; host cell line not named in the record; reference of the full effect not given here. activation, % (no concentration beside the values). hit rate 0.12% among 410,000. AID 624414; in the data active = activation above about 50%; inconclusive = about 30% to 50%; inactive = below about 30%; further: 0% is about no effect; the text of the record puts the active cut at 80%
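Agonist activity was taken from a 110 s kinetic Ca2+ dye read on the FDSS after pinning compounds onto TRPML1-DL cells. The cells were seeded at 1,500/well with Tet inducer, incubated about 16 h, then dye-loaded at room temperature.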
TRPML1 inh: blocks the human TRPML1 channel; Q9GZU1; hit rate 0.02% among 390,000; activity change, negative = inhibition, % (test concentration not listed); TRPML1-inducible cells, Ca2+ dye fluorescence, FDSS; active compounds read low; inhibition of EC80 agonist-evoked calcium signal; AID 624415; in the data active means activity change below about -50%; inconclusive means about -30% to -50%; inactive means above about -30%;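 further: stimulus is agonist 54-4 at its EC80 concentration; on the % scale 0 is the no-effect control and ±100 the full control effect; compound concentration not given in the record; the text of the record puts the active cut at -80%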
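Calcium fluorescence in TRPML1-DL cells induced overnight with Tet: a 110 s read after compound pin addition, then a 110 s antagonist read after challenge with 54-4 at 4 uM final (EC80).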
* = called active by the depositor; ? = inconclusive; . = not tested or not shown; [ ] = dose if it differs, or a comment.

SMILES | D2 ag | D2 PAM | Six1-Eya2 blk | PINK1 expr mod | TRPML1 ag | TRPML1 inh
CC(C)(CNC(=O)c1ccc(NS(=O)(=O)c2ccc(Br)cc2)cc1)N1CCOCC1 | -8.3 | -26 | -1 | 5.7% | 0.3 | 13
COc1ccc(OC)c(S(=O)(=O)N2CCN(c3ccccn3)CC2)c1 | 0.0 | -3 | 4 | -1.4%[38.3 µM] | -0.4 | -13
Cc1ccc(CNc2nc3ccccc3n3c(C)nnc23)cc1 | . | . | . | 6.4% | -0.3 | 3
CCOC(=O)c1c(C)oc2nc(C)nc(NCc3ccccc3OC)c12 | . | . | . | 0.3% | 0.2 | 26
CC(C)(C)c1ccc(C(=O)NNc2ncnc3c2cnn3-c2ccccc2)cc1 | . | . | . | 16% | 1.8 | 21
O=C(NCc1ccccc1)C1CCN(S(=O)(=O)N2CCCCCC2)CC1 | 4.1 | -4 | 8 | ? | 1.0 | -14
CCNC(=S)N(Cc1cccs1)Cc1cc2cc(OCC)ccc2[nH]c1=O | 0.5 | 2 | -1 | -1.3% | 0.4 | 13
C=C(Cl)COc1ccc2c(C)cc(=O)oc2c1 | -0.4 | -4 | 3 | -0.7%[38.3 µM] | -0.7 | -18
O=C1CC(C(=O)Nc2ccccc2)C2(CCCC2)O1 (configuration not stated) | -0.2 | -9 | 0 | -2.5% | 1.9 | -2
COC(=O)c1c(C)[nH]c(C(=O)/C=C/c2ccccc2)c1C | -3.5 | -10 | -3 | 2.4% | 1.4 | 13
CCCCN(C(=O)CN1C(=O)C2CCCCC2C1=O)c1c(N)n(CCCC)c(=O)[nH]c1=O (configuration not stated) | -2.0 | 2 | 5 | 2.8% | 0.0 | 10
COc1ccc(N2C(=O)c3ccccc3NC23C(=O)N(C)c2ccccc23)cc1 (configuration not stated) | -2.6 | -6 | 0 | 0.5%[38.3 µM] | -0.5 | 13
Cc1ccccc1C(=O)NCC(=O)OCC(=O)NNC(=O)c1ccccc1F | -1.1 | -12 | 9 | 0.4% | -0.5 | 21
COc1c(O[C@@H]2O[C@H](CO)[C@@H](O)[C@H](O)[C@H]2O)cc2c(c1OC)-c1ccc(SC)c(=O)cc1C(NC(C)=O)CC2 (some centres not stated) | -3.3 | 11 | 0 | 0.4% | -0.7 | -4
CC(CNc1nc2ccccc2c2nc(-c3ccccc3)nn12)c1ccccc1 (configuration not stated) | . | . | . | -1.0% | 1.0 | 35
O=C(CSc1ccccn1)N/N=C/C=C/c1ccccc1 | -6.9 | -7 | -1 | 0.8% | 1.1 | -14
CCOc1ccc(NC(=S)N(CCN2CCOCC2)Cc2ccc3c(c2)CCCN3CC)cc1 | 0.1 | -10 | ? | 1.1% | -0.2 | 16
COc1ccc(S(=O)(=O)N2CCC(C(=O)NCc3ccccn3)CC2)cc1OC | -0.1 | -12 | 0 | 1.7%[38.3 µM] | -0.3 | 4
Cc1nn(-c2ccccc2)c2c1N(CCCC(=O)NCc1ccccc1)C(=O)CS2 | . | . | . | 7.3% | -1.4 | 26
CCOC(=O)CN1C(=O)N[C@@H](c2cccc(C(F)(F)F)c2)C(C(C)=O)=C1C | -1.5 | -10 | 5 | -1.7% | 0.0 | 11
CCN(CC(=O)NCCc1ccccc1)S(=O)(=O)c1ccc(Br)cc1 | -4.0 | -1 | 7 | . | 0.1 | 11
CCOC(=O)N1CCN(C(=O)c2cc(C)c3c(C)nn(-c4ccccc4)c3n2)CC1 | 1.1 | 0 | 2 | 4.9%[38.3 µM] | -0.2 | 3
Cc1cccc(OCCn2nnc3ccccc32)c1C | 3.5 | -22 | 3 | 5.2% | 2.2 | 20
COC(=O)C(NNc1ccccc1C)(NC(=O)c1ccc(F)cc1)C(F)(F)F (configuration not stated) | 0.7 | 13 | -19 | -1.8% | 2.0 | -18
CCOC(=O)c1c(-c2ccccc2)oc2ccc(NS(=O)(=O)c3ccccc3)cc12 | . | . | . | ? | -1.0 | -8
CCCCNC(=O)C(NC(=O)c1cccc(C(F)(F)F)c1)C(=O)c1ccccc1 (configuration not stated) | -3.0 | -3 | 11 | 1.9% | -0.3 | .
Cc1cc(N2C(=O)C(O)=C(C(=O)c3ccco3)C2c2cccc(O)c2)no1 (configuration not stated) | -4.2 | -11 | 1 | -1.3% | 0.1 | -2
Cc1cc(/C=C2\SC(=S)N(Cc3ccco3)C2=O)c(C)n1-c1ccccc1 | -3.6 | -22 | -11 | 2.8% | 8.3 | -11
CCOc1ccc(Nc2oc(/C=C/c3ccc(OC)c(OC)c3)nc2C#N)cc1 | . | . | . | 3.5% | 0.9 | 1
CCOc1ccccc1NC(=O)N1CCN(S(C)(=O)=O)CC1 | -2.4 | -11 | 7 | 0.0% | -1.1 | -14
Cc1ccc(CNC(=O)c2ccc(N3CCC4(CC3)CC(c3cccc(Br)c3)=NO4)c(N)c2)cc1 | -2.4 | -10 | -8 | -1.8% | -0.7 | 8
CCN(CC)C(=O)COc1ccc(S(=O)(=O)N2CCOCC2)cc1 | -1.7 | -4 | 2 | 1.9%[38.3 µM] | -0.2 | -7
CN=C1S/C(=C\c2cccc(Cl)c2Cl)C(=O)N1C | -7.0 | -17 | 5 | 0.1% | -1.4 | -2
CCOc1cc(CNCc2cccnc2)ccc1OCC(=O)NC(C)(C)C | -4.6 | -11 | -2 | 1.7% | -0.1 | -6
Cc1ccccc1C(=O)Nc1nnc(-c2ccc(C(C)(C)C)cc2)s1 | -1.0 | 14 | 1 | 5.3% | 0.9 | 7
Cn1c(C(=O)N2CCN(c3ccc(Cl)cc3)CC2)cc2c(=O)[nH]c3ccccc3c21 | 4.9 | 18 | -5 | 10% | -0.1 | -7
Cc1csc(NC(=O)CSc2nc(C)cs2)n1 | -3.9 | -6 | 0 | -1.8% | -0.7 | -8
CC(=O)c1ccc(NC2OC(C)C(O)C(O)C2O)cc1 (configuration not stated) | -4.3 | 6 | 4 | -1.0% | -0.1 | 7
O=C(COc1ccc2c(c1)CCC2)NCc1ccccc1 | -2.6 | -2 | 13 | -0.7% | 3.0 | 4
O=C(NC1CCN(Cc2ccc(Cl)cc2)CC1)c1cn(-c2ccccc2)nc1-c1cccnc1 | -1.6 | -3 | -8 | 0.7% | 1.8 | -3

2 records drawn at random from the list so far:
SMILES | D2 ag | D2 PAM | Six1-Eya2 blk | PINK1 expr mod | TRPML1 ag | TRPML1 inh
Cc1csc(NC(=O)CSc2nc(C)cs2)n1 | -3.9 | -6 | 0 | -1.8% | -0.7 | -8
CN=C1S/C(=C\c2cccc(Cl)c2Cl)C(=O)N1C | -7.0 | -17 | 5 | 0.1% | -1.4 | -2

(next part)
SMILES | D2 ag | D2 PAM | Six1-Eya2 blk | PINK1 expr mod | TRPML1 ag | TRPML1 inh
CCCS(=O)(=O)N1CCCC(C(=O)Oc2ccc(OC)cc2)C1 (configuration not stated) | -0.3 | -5 | 1 | 2.8% | 0.3 | 44
COc1ccc([C@@H]2[C@@H]3C(=O)N(C(C)(C)C)C(=O)[C@@H]3[C@]3(C)C(=O)N(c4cccc(C)c4)C(=O)N23)cc1 | -1.3 | -14 | 0 | 0.1% | -0.4 | -6
CC(=O)c1ccc(NC(=O)Cn2nc(C)c([N+](=O)[O-])c2C)cc1 | -5.3 | -9 | -4 | 0.4% | -0.8 | 11
O=S(c1ccsc1)c1ccsc1 | -2.1 | 4 | 0 | -0.6% | 1.6 | 11
Cc1oc(-c2ccc(Cl)cc2)cc1C(=O)N1CCC1(C)C(=O)O (configuration not stated) | -3.1 | -8 | 4 | 0.2% | -0.5 | .
CC1CC1C(=O)N1CCN(S(=O)(=O)c2cccc(F)c2)CC1 (configuration not stated) | 0.3 | 6 | 7 | -1.0% | 0.3 | 7
COC(=O)c1csc2c(C(F)(F)F)cc(N3CCN(C(=O)Nc4ccccc4)CC3)nc12 | -3.3 | -9 | 3 | 2.7% | 0.8 | 39
Cc1ccc2c(c1)c1ncnc(N3CCc4ccccc4C3)c1n2C | -5.5 | -4 | -8 | 0.6% | 2.3 | 74
O=C1NC[C@H](c2ccccc2)OC(=O)[C@@H](Cc2ccc(F)cc2)C/C=C\C[C@H]1CC(=O)N(CCO)Cc1ccccc1 | -7.0 | 13 | 12 | -1.1% | 1.5 | 1
CC(C)(C)NC(=O)c1c(F)c(F)c(F)c(F)c1F | -0.6 | -11 | 1 | 0.1% | 1.0 | 9

Reformatted in CSV form: part of the list above
molecule,D2 ag,D2 PAM,Six1-Eya2 blk,PINK1 expr mod,TRPML1 ag,TRPML1 inh
COC(=O)c1c(C)[nH]c(C(=O)/C=C/c2ccccc2)c1C,-3.5,-10,-3,2.4%,1.4,13
CCCCN(C(=O)CN1C(=O)C2CCCCC2C1=O)c1c(N)n(CCCC)c(=O)[nH]c1=O (configuration not stated),-2.0,2,5,2.8%,0.0,10

Remaining list, next part:
SMILES | D2 ag | D2 PAM | Six1-Eya2 blk | PINK1 expr mod | TRPML1 ag | TRPML1 inh
Cn1cc(CNC(=O)c2cc(-c3ccc(Br)cc3)nc3ccccc23)cn1 | 5.6 | -36 | -17 | -1.1% | -0.3 | -3
O=S(=O)(NCC(c1ccco1)N1CCN(c2ccccc2F)CC1)c1ccccc1 (configuration not stated) | 5.9 | -9 | -2 | 8.0% | 2.1 | 14
O=C(Nc1cc(S(=O)(=O)N2CCOCC2)ccc1O)c1ccco1 | -3.3 | -8 | -3 | -0.8% | -0.5 | -10
O=C(Nc1nc(N2C(=O)c3ccccc3C2=O)n(-c2ccccc2)n1)c1ccc(F)cc1 | -0.7 | -13 | ? | 0.5% | 0.2 | 1
O=C(NC(=S)Nc1nc(-c2ccccc2)cs1)c1cncc(Br)c1 | -2.1 | -4 | -2 | -2.5%[38.3 µM] | 11 | -14
CC(C)(C)OC(=O)N1CCC(C(=O)Nc2ccc(C(=O)NCc3ccccc3)cc2)CC1 | -1.8 | . | -2 | 1.7% | -0.3 | 34
COc1ccccc1N1CCN(CCCNC(=O)c2cnn(-c3cccc(Cl)c3)c2C2CCN(C(=O)OC(C)(C)C)CC2)CC1 | . | . | . | -2.6% | 1.3 | 11
Cc1ccc(-n2nnc(C(=O)Nc3cc(F)ccc3F)c2C)cc1F | . | . | . | -0.6% | -0.6 | -2
C[C@H](NC(=O)[C@@H]1CSC2c3ccccc3C(=O)N21)C(=O)NCc1c(F)cccc1Cl (some centres not stated) | 1.2 | 0 | 24 | 0.7% | 0.2 | -5
Cc1ccc(S(=O)(=O)N2CCC(C(=O)OCC(=O)N3CCC(C)CC3)CC2)cc1C | -6.0 | -1 | -3 | -0.6% | -0.3 | 20
CC(=O)NC(CC(=O)Nc1ccc(S(=O)(=O)N2CCCCC2)cc1)c1ccccc1 (configuration not stated) | 0.5 | -25 | -1 | . | 0.3 | -1
CC(C)Sc1ccc(C(=O)Nc2ccc(F)cc2F)cn1 | 6.6 | -5 | -1 | 3.0% | 1.8 | -11
COc1ccc(N2CCN(C(=O)c3ccc(F)cc3)CC2)c([N+](=O)[O-])c1 | -2.0 | -38 | -11 | -1.8% | 1.6 | 15
O=C(Cc1noc2ccccc12)Nc1ccc(Cl)cc1 | -7.5 | -2 | 3 | 0.6% | -1.8 | 0

High-throughput results: PubChem BioAssay, National Center for Advancing Translational Sciences (NCATS)

Compounds were not picked by outcome (roughly 1% active in at least one column).
